Compound activity as filed in PubChem BioAssay.
PrP 5UTR inh = inhibition of PrP 5' UTR reporter expression; inhibition, % (no concentration beside the values); 340,000 tested, 0.35% active; cell-based PrP 5' UTR mRNA reporter, plate reader;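 active = every replicate at 50% or more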;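 also: 0 = median of the neutral control wells; tested in H4 reporter cells; numbers are from one replicate; inactives centre near -14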
BJeLR lethal = MLPCN primary cell-based screen for lethality selective to Ras in HRASV12 cells; inhibition, % (concentration not given with the values); AID 1554, 2009; 300,000 tested, 0.17% active; BJeLR (HRASV12) viability, CellTiter-Glo ATP luminescence, 48 h; reference of the scale not given here;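 active = replicate mean above 50%; inconclusive = above 50% but judged a plate artefact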;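 also: 50 nL library stock added to about 25 µL; numbers are from one replicate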
Sa RN4220 lethal = growth inhibition of S. aureus RN4220, primary screen, OD600. 16 h. inhibition, % (test concentration not listed). 330,000 tested, 0.33% active. AID 1259311, 2017;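 active = z-score of -3 or lower and OD600 up to 0.18 on both plates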;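 also: plate controls were untreated cells for no effect and reference antibiotic for full effect; stock transfer was 100 nL into about 80 µL; one replicate is shown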
Bead autofluor = compound fluorescence in toxin protease inhibitor counterscreen | compound autofluorescence counterscreen, microsphere flow cytometry; stronger effect = higher value | fluorescence intensity (test concentration not listed) | 360,000 tested, 3.1% active | AID 624483;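 active = at least 3 SD above the mean of all compounds, about 16000 in these data; inconclusive = too few beads counted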;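 also: 100 nL of 1 mM stock went into each well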
ugtP null kill = growth inhibition of ugtP-null S. aureus, primary screen, RN4220 ugtP deletion, OD600; 16 h; some inactives read as strong as hits; growth inhibition, % (concentration not given with the values); 330,000 tested, 0.54% active;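 active = z-score under -3 and OD600 up to 0.15 on both plates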;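 also: plate controls were untreated wells for no effect and antibiotic for full effect; wells of about 80 µL received 100 nL stock; the first replicate is given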
Mtb hypoxia inh = PubChem AID 1159583; M. tuberculosis hypoxia-regulated fluorescent reporter, fluorescence; fluorescence inhibition, % (test concentration not listed); 300,000 tested, 0.1% active;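 active = 35 to 45% if threefold the growth effect, above 45% if 1.5-fold the growth effect; inactive = the rest, general growth blockers included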;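 also: wells of about 50 µL received 100 nL stock; 0% = vehicle wells and 100% = reference inhibitor wells; whole bacteria with a GFP reporter of the hypoxia response; strong numbers were not always called active; many hits fall short of the cut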
Mtb hypoxia inh growth = recorded beside Mtb hypoxia inh, whose call it bears; growth inhibition, %; measured here: M. tuberculosis growth (absorbance);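 0% = vehicle and 100% = reference antibiotic; read after six days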
* hit, by the source's call; ? = inconclusive; / = no result given; & = joins results of further samples.

cpd	Molecule	PrP 5UTR inh	Mtb hypoxia inh	Bead autofluor	Sa RN4220 lethal	Mtb hypoxia inh growth	BJeLR lethal	ugtP null kill
1	COc1ccc(N(CC(=O)Nc2cccc(C)c2)S(=O)(=O)c2ccc(C)cc2)cc1OC	-24	11	3953	5.2	3	-5	13
2	O=S1(=O)CCOC[C@H](CC2CCCCC2)N1Cc1cccc(F)c1	-21	/	2782	/	/	-2	/
3	Cc1ccc2oc(C(=O)NC3CCS(=O)(=O)C3)c(C)c2c1 (stereo not given)	-20	16	6470	2.3	2	4	9
4	CCCCN(C)C(=O)c1nc2ccccn2c1CN1CCC[C@H]1C(=O)OC	-9	-5	4656	-2.1	8	2	4
5	Cc1ccc2nccc(C(=O)N3CCCC(N4CCN(c5ccc(F)cc5)CC4)C3)c2c1 (stereo not given)	7	11	4751	-0.5	8	-2	3
6	O=C(C1=C(O)C(=O)N(CC2CCCO2)C1c1cccc(O)c1)c1ccco1 (stereo not given)	-24	13	3379	3.1	2	5	15
7	CC(C)OP(=O)(OC(C)C)C(Nc1ccccc1)c1cccnc1 (stereo not given)	-6	-5	4406	4.0	-5	-2	4
8	CCOC(=O)c1sc(NC(C)=O)c(C(=O)OCC)c1C	-4	/	4348	-0.5	/	-6	-2
9	Cc1[nH]n(-c2ccc(Cl)cc2)c(=O)c1C=Nc1nnc(-c2ccccc2)s1	/	17	/	5.7	2	/	11
10	Cc1cc(Cl)c(OCCOCCN2CCC(C)CC2)c(Br)c1	-6	4	2616	6.1	-2	11	8
11	COc1ccc(-c2noc(CCCC(=O)NC3CCCCC3)n2)cc1OC	-24	1	6006	-0.9	2	1	14
12	CCOC(=O)c1cnn2c(C)cc(-c3ccccc3)nc12	-63	-7	5330	2.2	-7	-10	-21
13	Cc1nc(Cl)c2c(n1)N(CC(N)=O)C(=O)CO2	-15	-8	2020	-2.2	3	-9	5
14	COC(=O)Cn1ncc2c3ccccc3n(C)c2c1=O	-36	10	2596	-6.1	3	12	0
15	Nc1nc(SCC(=O)Nc2ccc(Cl)cc2C(F)(F)F)n[nH]1	-21	-2	6597	1.4	-14	11	3
16	CC(=O)c1ccc(NC(=S)N2CCN(CCN3C(=O)c4cccc5cccc(c45)C3=O)CC2)cc1	-4	/	2562	/	/	3	/
17	O=C1OCCC1Sc1nc2ccccc2c(=O)n1Cc1ccc(F)cc1 (stereo not given)	-23	7	3260	1.2	7	-11	-16
18	Cc1cc(C)nc(-n2nc(C)cc2NC(=O)c2cccc(S(=O)(=O)N(C)C)c2)n1	/	3	/	-1.7	3	1	-1
19	C=CCNC(=S)NNC(=O)COc1cccc(Cl)c1	-18	4	15681	1.3	5	-10	-3
20	COc1ccccc1NC(=O)/C(C#N)=C/c1cccnc1	-17	7	4142	0.9	6	-3	-1
21	COc1ccc(C(=O)CCC(=O)NCCc2c[nH]c3ccccc23)cc1	-19	-4	3833	0.2	3	1	14
22	CN(CCOc1ccc(Cl)cc1)C(=O)c1cc([N+](=O)[O-])ccc1N1CCOCC1	-7	6	6411	1.2	5	-4	3
23	CN(CC1CCCO1)S(=O)(=O)c1ccc(C(=O)N2CCN(c3ccccc3)CC2)cc1 (stereo not given)	-20	0	2156	1.0	-4	-3	7
24	Cc1ccccc1OCC(=O)OCC(=O)NCCc1ccccc1	-13	1	4595	5.3	-2	/	5
25	c1ccc(-c2ncnc3cc4n(c23)CCC4)cc1	-17	1	4068	3.3	-7	-2	-5
26	CC1CC(C)(C)CC2(C1)NC(=O)N(CC(=O)NCCc1c[nH]c3ccccc13)C2=O (stereo not given)	-20	8	2495	1.4	5	1	0
27	CCOC(=O)CN1C(=O)S/C(=C/c2ccc(N3CCCCC3)o2)C1=O	-1	/	6711	2.4	/	-4	-1
28	CCC(=NCc1ccco1)c1c(O)n(-c2ccccc2)c(=O)[nH]c1=O	-17	18	3052	-9.5	14	1	-5
29	Cc1ccc(C(=O)Nc2ccc(Cc3ccncc3)cc2)cc1[N+](=O)[O-]	-19	/	3002	-1.9	/	-2	4
30	CCOC(=O)N1CCC(NC(=O)c2cc(S(=O)(=O)N3CCc4ccccc43)cn2C)CC1	-6	14	4499	5.3	10	-16	3

The listing continues:
cpd	Molecule	PrP 5UTR inh	Mtb hypoxia inh	Bead autofluor	Sa RN4220 lethal	Mtb hypoxia inh growth	BJeLR lethal	ugtP null kill
31	Cc1ccc(C(=O)NCc2nnc3c(C(F)(F)F)cc(Cl)cn23)o1	-8	-4	5648	1.3	7	1	1
32	COc1ccc(C(=O)c2cnc[nH]2)cc1OC	-16	0	3712	1.0	-4	1	-3
33	COc1ccccc1CC(=O)NNS(=O)(=O)c1ccccc1[N+](=O)[O-]	-8	-4	4671	5.2	6	-8	-4
34	Cn1c(SCC(=O)c2c(N)n(C)c(=O)n(C)c2=O)nnc1-c1ccccc1	-30	/	2076	/	/	11	/
35	CCn1c(SCC(=O)NN=C/C=C/c2ccccc2[N+](=O)[O-])nnc1-c1ccc(Cl)cc1	/	2	/	8.7	-2	/	3
36	CN(C)Cc1cc(C(C)(C)c2ccccc2)ccc1O	-11	10	4282	0.7	14	/	-4
37	Cc1oc(-c2ccccc2F)nc1CSCC(=O)NC1CC1	-14	13	5447	4.9	4	7	1
38	CCc1nc(-c2ccccc2)cc(=O)[nH]1	-1	0	12624	1.9	-1	0	-2
39	COc1ccc(CCn2c(C)cc3c(c2=O)C(c2ccncc2)C(C#N)=C(N)O3)cc1OC (stereo not given)	-6&-9	5	3342	-16	8	5	1
40	CC(C)n1c(O)c(N=Nc2ccc(Cl)nn2)c2ccccc21	-1	0	14669	6.4	4	-3	-2
41	Cc1ccc(N2NC3(CCN(C(N)=O)CC3)NC2=O)cc1	/	-4	/	3.6	-1	2	3
42	Cc1ccc(S(=O)(=O)N2CCCCC2CCNC(=O)C(=O)NCc2ccccc2)cc1 (stereo not given)	-23	-11	3984	0.6	5	11	6
43	CC(=O)c1sc(NC(=O)c2ccc(C)cc2)nc1C	-82	/	4124	1.1	/	-8	-2
44	Clc1ccc(Cn2nnc3ccccc32)cc1	-9	3	3601	-3.1	11	-6	2
45	COc1ccc(C(=O)c2cnc3ccccc3c2-c2ccccc2)cc1	-4	9	7810	-1.3	2	0	71
46	CC(C)CCNC(=O)C(C)N(Cc1ccc(F)cc1)C(=O)c1ccc(CN2CCOCC2)o1 (stereo not given)	-10	0	3541	0.8	6	1	8
47	CN(CC(=O)Nc1ccc(Cl)c(C(F)(F)F)c1)C(=O)Cc1c[nH]c2ccccc12	-13	0	6777	-1.2	-1	6	-7
48	CCOc1ccc(Br)cc1S(=O)(=O)Nc1ccc(NC(=O)c2ccccc2F)cc1	-34	6	2627	-1.3	-1	-1	4
49	CCCOc1ccc(-c2c(C(=O)N/N=C/c3cccnc3)nnn2-c2nonc2N)cc1	-6	/	6107	/	/	4	/
50	Cc1ccccc1-n1c(SC2CCOC2=O)nnc1-c1ccncc1 (stereo not given)	-26	15	3986	3.5	5	-7	9
51	Cc1cc(C)c(S(=O)(=O)Nc2ccc(C(=O)O)cc2)cc1S(=O)(=O)Nc1ccc(C(=O)O)cc1	-18	-15	4007	3.3	4	-10	1
52	COc1ccccc1-c1cc(C(=O)N2CCN(c3ccc(F)cc3)CC2)no1	-21	0	11163	-0.8	-9	-11	6
53	Cc1ccccc1-n1c(O)c(C=Nc2ccc3c(c2)OCO3)c(=O)[nH]c1=O	-25	0	22656*	2.6	-6	-4	6
54	COc1ccc(C(C(=O)NC2CCCCC2)N(C(=O)c2snc(C(N)=O)c2N)c2ccccc2OC)cc1 (stereo not given)	-22	12	5708	3.2	-3	-1	-7
55	O=C(c1ccco1)N1CCN(S(=O)(=O)c2ccc3[nH]c(=O)oc3c2)CC1	-34	3	2377	2.1	0	0	-7
56	c1ccc(SCc2cn(C[C@H]3CC[C@@H]([C@@H]4CC[C@H](Cn5cc(CSc6ccccc6)nn5)O4)O3)nn2)cc1	-18	/	4004	/	/	9	/
57	Cn1c(SCC(=O)Nc2ccccc2)nnc1-c1ccc2nonc2c1	-6	-1	4555	-0.4	-3	-4	3
58	Cc1ccc(CC(=O)NCCCn2ccnc2)cc1	-13	12	3890	2.1	1	-5	1
59	CCOC(=O)C(Cc1ccccc1)C(=O)Nc1cccc2ccccc12 (stereo not given)	-13	-3	2479	14	3	-2	4
60	O=C1c2ccccc2S(=O)(=O)N1Cc1nc2ccccc2s1	70*	8	2570	7.5	9	4	17

Part of the list above, screen by screen.
2	O=S1(=O)CCOC[C@H](CC2CCCCC2)N1Cc1cccc(F)c1
3	Cc1ccc2oc(C(=O)NC3CCS(=O)(=O)C3)c(C)c2c1 (stereo not given)
4	CCCCN(C)C(=O)c1nc2ccccn2c1CN1CCC[C@H]1C(=O)OC

screen / no. | 2 | 3 | 4
PrP 5UTR inh | -21 | -20 | -9
Mtb hypoxia inh | / | 16 | -5
Bead autofluor | 2782 | 6470 | 4656
Sa RN4220 lethal | / | 2.3 | -2.1
Mtb hypoxia inh growth | / | 2 | 8
BJeLR lethal | -2 | 4 | 2
ugtP null kill | / | 9 | 4

Next entries follow.
cpd	Molecule	PrP 5UTR inh	Mtb hypoxia inh	Bead autofluor	Sa RN4220 lethal	Mtb hypoxia inh growth	BJeLR lethal	ugtP null kill
61	CCCN(C(=O)c1cc(-c2ccco2)nc2ccccc12)c1c(N)n(Cc2ccccc2)c(=O)[nH]c1=O	-11	4	4409	-0.3	-5	14	1
62	CCCC(=O)OCC(=O)Nc1cc([N+](=O)[O-])ccc1OC	-20	4	2015	2.2	1	1	-6
63	Cc1cc(C)c2nc(N3CCC(C(=O)N4CCN(C(=O)c5ccco5)CC4)CC3)sc2c1	-21	-9	3828	-6.7	4	-6	-6
64	COc1ccc(CC(=O)OCC(=O)Nc2ncc(Cl)cc2Cl)cc1OC	-8	3	8072	2.3	-2	11	5
65	CCCN1CCc2c(sc(NC(=O)CCS(=O)(=O)c3ccccc3)c2C(N)=O)C1	3	-13	4088	-0.8	-1	3	-5
66	COC(=O)c1c(NC(=O)/C=C/C(=O)O)sc(C)c1-c1ccc(C(C)C)cc1	-11	11	4252	18	7	-3	32
67	Cc1ccc(-n2nc3c(c2NC(=O)c2ccc4c(c2)OCO4)CSC3)cc1	-1	7	3467	4.4	0	2	-2
68	O=C(COC(=O)C1CCN(c2ccc(C(F)(F)F)cn2)CC1)NC1CCCCC1	-10	7	5293	0.8	0	-21	1
69	COC(=O)c1nc(-c2ccc3c(n2)C(=O)C(N)=C(OC)C3=O)c(N)c(-c2ccc(OC)c(OC)c2O)c1C	48	18	3779	22	12	64*	13
70	COc1ccc(-c2cc3c(=O)n(CC(=O)N4CCCC4)ncn3n2)cc1	-37	-3	5563	4.9	-4	-7	7
71	CC(C)n1nc(C(=O)OCC(=O)N2CC(=O)Nc3ccccc32)c2ccccc2c1=O	-40	12	4736	5.2	8	8	5
72	C/C(=N\NC(=O)COc1ccccc1[N+](=O)[O-])c1cccc(NC(=O)c2ccncc2)c1	-21	/	6055	/	/	8	/
73	C=C(C)C1CC=C(C)/C(=N/NC(=O)c2ccc(NC(=O)CC)cc2)C1 (stereo not given)	-8	/	17225*	/	/	-7	/
74	Cn1c(=O)c2c(nc(CN3CCN(c4ccccc4)CC3)n2Cc2ccccc2Cl)n(C)c1=O	-23	0	19891*	6.6	3	2	-4
75	CC(=O)C1[C@H](N(C)C)CC2C3CC=C4CC(O)CC[C@]4(C)C3CC[C@@]21C (stereo not given in full)	-2	5	3119	6.5	2	11	8
76	C/C(C=NNC(=O)c1ccco1)=C\c1ccccc1	/	-9	/	-0.2	0	/	1
77	COc1ccccc1Nc1nc(N)nc(CN2CCC(Cc3ccccc3)CC2)n1	-2	15	3658	-2.2	1	-18	-8
78	Cc1[nH]c2ccccc2c1C(=O)C(C)OC(=O)c1ccccc1NCCO (stereo not given)	-9	/	?	/	/	-5	/
79	COc1ccc(S(=O)(=O)CC(=O)c2cc(C)c(O)c(C)c2)cc1	-21	5	3938	3.4	6	-2	3
80	O=C(NC1CCCCC1)C1CCCN(S(=O)(=O)c2cccs2)C1 (stereo not given)	-19	/	4866	-0.4	/	-7	9
81	O=C(CCC(=O)Nc1ccc(F)cc1)N/N=C/c1ccccc1	-17	/	3888	/	/	-3	/
82	Cc1ccc(Nc2nc(N)nc(CCl)n2)cc1	-85	/	?	4.6	/	-1	2
83	COc1ccc(CN(C)S(=O)(=O)c2nnc(NC(=O)c3ccccc3OC)s2)cc1OC	14	-1	4621	2.4	-5	4	7
